Bioassay records from PubChem BioAssay.
gsp agonist = gsp mutant agonism | 340,000 tested, 0.13% active | AID 624287 | gsp mutant cells, cAMP HTRF, 30 min; control for the full effect not named in the record | Potency, µM (top dose mostly 76.9 µM), without a hit: at the top dose activation (cAMP increase), actives largely listed as activators; active = well fitted activation curve with a large enough effect; inconclusive = small, poorly fitted or top-dose-only effect, or another doubt; inactive = no such curve, though single readings can be large or run the other way; cell line not stated here;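 further: phosphodiesterase inhibitor Ro 20-1724 added with compounds to block cAMP breakdown; potency means the concentration at half of the fitted maximal effect; nearly all actives have a fitted effect of over 60% in size; about a fifth of the inactives were tested at one dose only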
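Cells stably selected in G418 were plated at 2000/well, grown 16-24 hr, then given compounds in DMSO with the PDE inhibitor […] (300 uM solution added) for 30 min at 37C; cAMP was read by HTRF.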
gsp antag = gsp mutant antagonism. gsp-mutant cells, cAMP HTRF, 30 min; control for the full effect not named in the record. Potency, µM (series often up to 76.9 µM), for the others: top-dose activity change, negative = inhibition, most hits filed as inhibitors. 340,000 tested, 0.4% active. AID 624288; active = falling curve of any shape with a large fitted effect; inconclusive = falling curve, mostly with a smaller effect; inactive = flat or rising curve; cell line not stated here;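 further: intracellular cAMP measured with PDE inhibitor Ro 20-1724 present during compound exposure; potency means the concentration at half of the fitted maximal effect; on the % scale 0 is the no-effect control and ±100 the full control effect; nearly all actives have a fitted effect of over 65% in size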
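HTRF cAMP measurement after 30 min RT detection following 30 min, 37C compound treatment alongside […] (added as 300 uM solution) in G418-selected cells seeded at 2000/well and grown 16–24 h.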
TRPML1 inh = blocks the human TRPML1 channel; TRPML1-inducible cells, Ca2+ dye fluorescence, FDSS; active compounds read low; inhibition of EC80 agonist-evoked calcium signal; activity change, negative = inhibition, % (concentration not given with the values); 390,000 tested, 0.02% active; AID 624415; in the data active means activity change below about -50%; inconclusive means about -30% to -50%; inactive means above about -30%;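 further: stimulus is agonist 54-4 at its EC80 concentration; on the % scale 0 is the no-effect control and ±100 the full control effect; the text of the record puts the active cut at -80%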
Target sequence (Q9GZU1 whole entry, looked up): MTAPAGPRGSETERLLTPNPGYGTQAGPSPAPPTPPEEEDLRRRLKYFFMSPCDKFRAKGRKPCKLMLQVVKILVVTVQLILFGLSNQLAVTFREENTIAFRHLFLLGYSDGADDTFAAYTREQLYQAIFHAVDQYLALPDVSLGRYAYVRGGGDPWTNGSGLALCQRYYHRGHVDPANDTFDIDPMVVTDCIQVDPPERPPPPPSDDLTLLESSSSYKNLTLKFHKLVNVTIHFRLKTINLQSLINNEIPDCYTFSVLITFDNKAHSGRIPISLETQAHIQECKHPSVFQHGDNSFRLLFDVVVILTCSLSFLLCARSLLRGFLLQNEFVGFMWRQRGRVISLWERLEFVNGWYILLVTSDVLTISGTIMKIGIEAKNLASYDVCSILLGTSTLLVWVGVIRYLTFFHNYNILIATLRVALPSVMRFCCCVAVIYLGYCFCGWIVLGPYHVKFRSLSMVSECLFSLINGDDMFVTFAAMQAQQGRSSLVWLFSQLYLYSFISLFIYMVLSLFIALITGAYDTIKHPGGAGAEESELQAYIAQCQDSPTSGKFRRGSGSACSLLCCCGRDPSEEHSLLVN
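TRPML1-DL cells, Tet-induced overnight (~16 h, 37 °C) at 1,500 cells/well, were loaded with Ca8 no-wash dye plus quencher for 45-90 min at room temperature. Compounds were pinned during FDSS kinetic reading; agonist 54-4 at EC80 (4 uM final) then added.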
ClpP mod = qHTS Assay for Activators of ClpP. purified B. subtilis ClpP, FRET peptide cleavage, 20 min. Potency, µM (series often up to 57.5 µM), without a hit: at the top dose activity change, negative = active. 340,000 tested, 1.9% active; active = well fitted falling curve with a large enough effect; inconclusive = small, poorly fitted or top-dose-only effect; inactive = no such curve, though single readings can be large or run the other way; further: potency means the concentration at half of the fitted maximal effect; the source files actives as falling curves though it sought activators and does not explain the sign; nearly all actives have a fitted effect of over 65% in size; many hits overshoot -100%
Target sequence (P80244 whole entry, looked up): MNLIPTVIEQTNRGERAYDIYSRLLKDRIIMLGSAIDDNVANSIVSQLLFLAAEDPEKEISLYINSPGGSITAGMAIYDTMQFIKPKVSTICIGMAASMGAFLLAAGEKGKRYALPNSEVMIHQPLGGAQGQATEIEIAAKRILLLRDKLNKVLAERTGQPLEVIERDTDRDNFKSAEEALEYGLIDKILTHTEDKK
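FRET quenching reversal measured ClpP activation: 10 microg/mL B. subtilis ClpP at pH 8 with the FRET-FV decapeptide, read at 430 nm after 320 nm excitation. The 20-min minus 0-min signal was scaled between DMSO/no-enzyme wells and ADEP (5.8 microM final).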
Menin MLL FP FL = displaces fluorescein MLL peptide from human menin | FP activity change, % at 61.4 µM | Fluorescence polarization, fluorescein-MLL peptide displacement from menin | 290,000 tested, under 10 active; inconclusive = falling polarisation curve, or a change in total fluorescence; inactive = total fluorescence flat and polarisation flat or rising; no compound was filed as active; the % refers to the polarisation; negative = inhibition;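 further: % of control where 0% means no effect; inhibitors lower the polarisation; unlabelled MLL peptide was the positive control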
TRPML1 ag = agonists of human TRPML1 channel. TRPML1-expressing cells, Ca2+ dye fluorescence, FDSS; host cell line not named in the record; reference of the full effect not given here. activation, % (concentration not given with the values). 410,000 tested, 0.12% active. AID 624414; in the data active = activation above about 50%; inconclusive = about 30% to 50%; inactive = below about 30%; further: 0% is about no effect; the text of the record puts the active cut at 80%
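TRPML1-DL cells, Tet-induced overnight (~16 h, 37 degrees C), loaded 45-90 min at room temperature with Ca8 no-wash calcium dye plus quencher. FDSS fluorescence: 10 s baseline, compound pin-transfer, 110 s agonist read, then EC80 54-4 (4uM final) and 110 s antagonist read.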
An asterisk follows results filed as active; ? = inconclusive; · = no result given; & = joins results of further samples; [ ] = dose if it differs, or a comment.

Start of the listing, in advance (2 entries):
Structure	gsp agonist	gsp antag	TRPML1 inh	ClpP mod	Menin MLL FP FL	TRPML1 ag
CNC(=O)C(C#N)(Cc1cc(C(C)=O)ccc1OC)Cc1cc(C(C)=O)ccc1OC	-4%[15.4 µM]	-3%	-14	·	·	0.0
COc1ccc(/C=N/Nc2nc(-c3cccnc3)nc3ccccc23)c(OC)c1	1%[15.4 µM]	-8%	-1	-4.9%	?	0.0

The whole of this part, from the start:
Structure	gsp agonist	gsp antag	TRPML1 inh	ClpP mod	Menin MLL FP FL	TRPML1 ag
CNC(=O)C(C#N)(Cc1cc(C(C)=O)ccc1OC)Cc1cc(C(C)=O)ccc1OC	-4%[15.4 µM]	-3%	-14	·	·	0.0
COc1ccc(/C=N/Nc2nc(-c3cccnc3)nc3ccccc23)c(OC)c1	1%[15.4 µM]	-8%	-1	-4.9%	?	0.0
Cc1noc(C)c1COc1ccccc1C(=O)Nc1ccc(C(N)=O)cc1	-5%	-4%	-1	-1.5%	·	1.2
CCN(CC)CCN(C(=O)c1cccc(N2C(=O)CCC2=O)c1)c1nc2cc3c(cc2s1)OCO3	?	-3%	23	·	-0.8	-0.5
O=C(COc1ccccc1Cl)NNC(=O)C1CCCO1 (stereo unspecified)	0%	3%	1	-3.3%	-2.3	0.6
O=C(/C=C/c1ccccc1[N+](=O)[O-])N1CCN(C(=O)c2ccco2)CC1	3%	3%	1	·	-0.9	-0.4
COc1ccccc1CNC(=O)CC(c1ccc(F)cc1)N1Cc2ccccc2C1=O (stereo unspecified)	·	·	12	-11%	·	-0.6
Cc1cccc(C(=O)N/N=C/c2ccccn2)c1	-19%	-9%	-4	-0.9%	-0.9	-0.2
CC(=O)Nc1ccc(S(=O)(=O)NCC(=O)OCC(=O)N2CCCc3ccccc32)cc1	-8%	15%	-10	-4.5%	-0.1	-0.6
Cc1cccc(CNS(=O)(=O)c2ccc(-c3ccc(=O)[nH]n3)s2)c1	-18%	10%	-12	-3.5%	·	0.6
O=C(Cc1ccccc1)Nc1ccc(NC(=O)c2cccs2)cc1Cl	-92%[inhibitor]	-5%	6	53%	0.2	2.9
O=C(NCCCc1ccccc1)c1cnc2n(c1=O)CCS2	16%	6%	11	-8.4%	-0.5	4.4
COc1cccc(CN2CCC(C(=O)N3CCN(c4ccccc4F)CC3)CC2)c1OC	-6%	9%	-19	-0.9%	-1.3	1.3
CSC(=S)N/N=C/c1ccccc1	?	4%	17	·	-3.1	0.1
Cc1cc(=O)[nH]c(SCC(=O)Nc2ccc(S(N)(=O)=O)cc2)n1	-70%[inhibitor]	12%	12	·	1.6	0.3
COC(=O)c1cc(Br)ccc1OC(=O)c1cccnc1	?	-6%	-5	2.1%	-1.5	0.6
O=C(NNC(=O)C1CC1)c1cc(Br)c(Br)s1	5%	-3%	21	-2.1%	·	-0.7
Cc1ccc(-c2cnc(NC(=O)CCC(=O)N3CCCCC3)n2C)cc1	1%	-4%	17	-3.4%	-0.3	0.5
CCOc1ccc(-c2cc(C(=O)N3CCN(C)CC3)c3ccccc3n2)cc1	11%	-7%	1	28µM*	3.5	-0.1
O=C(NCCCc1ccccc1)c1cccc(NC(=O)C2CCCCC2)c1	·	-3%	4	-1.8%	·	-0.5
COC(=O)C(C#N)c1nc2ccccc2nc1N1CCCC1 (stereo unspecified)	4%	4%	17	?	?	2.9
Cc1ccc(NC(=O)C2CCCN(S(=O)(=O)c3cnc[nH]3)C2)cc1F (stereo unspecified)	4%	-9%	-3	-0.6%	2.6	0.4
Cc1cn(-c2cc(C(=O)Nc3ccc(C)c(NC(=O)C(=O)c4c[nH]c5ccccc45)c3)cc(C(F)(F)F)c2)cn1	-50%	6%	55&-9	-3.7%&-1.1%	3.6	0.2&0.4
CCc1ccc(CNC(=O)C2CC(=O)N(C3CCCC3)C2)cc1 (stereo unspecified)	-19%	9%	-7	0.7%	3.0	0.1
CCN(CC)C(=O)Cn1cc(S(=O)(=O)CC(=O)NC2CCCCC2)c2ccccc21	?	3%	41	·	1.4	-0.1
CCOC(=O)c1c(SC)nc(SC)c2c1CCC2	33%	-9%	3	4.1%	1.3	-1.6
O=c1c2cc([N+](=O)[O-])ccc2sn1-c1ccccc1	22%	·	?	-2.9%	·	0.7
CCOC(=O)c1scc(-c2ccccc2)c1S(=O)(=O)Nc1cc(Cl)c(OC)cc1OC	·	·	29	0.2%	·	-0.4
Cc1ccc(C(=O)NC2CCCCCCC2)cc1S(=O)(=O)N1CCOCC1	-4%[15.4 µM]	-4%	31	0.7%	·	2.1
O=C(COC(=O)C1(c2ccc(Cl)cc2)CCCC1)Nc1ncc(C(F)(F)F)cc1Cl	-17%	-17%	26	-2.6%	2.3	1.8
CCc1nnc(NC(=O)CSc2nnc(-c3ccco3)n2CC)s1	4%	-5%	-12	1.2%	4.3	-0.8
COc1ccc(Br)cc1C(=O)Nc1ccc(C(=O)NCC(C)C)cc1	?	-9%	2	21%	2.3	3.0
CC1CCN(C(=O)NC(=O)c2ccc(Cl)cc2)CC1	-16%	2%	45	0.5%	-1.5	1.0
COc1ccc(C(C)=NNC(=O)c2cccc(S(=O)(=O)N3CCCC3)c2)cc1	?	6%	-2	·	·	-0.2
O=C(CSc1nnc(CCCO)n1-c1ccccc1)Nc1nccs1	8%	8%	-8	-0.6%	0.0	-0.1
Cc1c(C2=CCN(S(=O)(=O)c3ccc(CC(C)C)cc3)CC2)c2ccccc2n1CC(=O)N1CCCC1	·	·	?	-6.7%	·	3.1
COc1ccccc1CNC(=O)Cn1c(=O)ccc2cc(S(=O)(=O)N3CCCC3)ccc21	·	·	16	-10%	·	0.4
O=C(COc1ccc(Cl)cc1Cl)N1CCNC1=O	26%	5%	4	1.5%	·	0.3
COCCCNC(=S)NNC(=O)c1ccoc1C	27%	0%	-4	-0.5%	-1.5	0.5
C1=Nc2ccccc2CN1c1ccccc1	9%[15.4 µM]	0%	-11	-0.9%	-13	-0.1
CCOC(=O)C(=Cc1ccc(Br)cc1)C(=O)OCC	-9%	-3%	28	·	3.9	2.0
COc1cc(CN2CCCC(N3CCc4ccccc4C3)C2)c(Cl)cc1O (stereo unspecified)	-87%[inhibitor]	-4%	29	·	-0.4	-0.6
O=C(CSc1ccccn1)N1CCCC(Nc2ccccc2)C1 (stereo unspecified)	19%	12%	-11	-1.6%	-1.6	0.9
Cc1cc(-c2nc3ncccc3o2)ccc1NC(=O)c1ccccc1Br	·	·	2	-16%	·	1.7
CCc1ccc(NC(=O)COc2ccc(/C=C(/C#N)c3nc4ccccc4[nH]3)cc2OC)cc1	?	-3%	-16	-3.0%	-0.3	1.0
CCOc1ccccc1-n1c(N)c(C(N)=O)sc1=S	-11%	6%	-17	-3.4%	-0.2	-0.4
CCN1C(=O)C(c2ccc(O)cc2)(c2ccc(O)cc2)c2ccccc21	7%[15.4 µM]	14%	22	·	6.3	2.1
CCc1ccc(NC(=O)C(=O)NCC2CCCN2S(=O)(=O)c2cccs2)cc1 (stereo unspecified)	10%	2%	-13	-2.0%	·	0.1
CCc1ccccc1N(C(C)=O)c1nc(CN=C=S)cs1	?	-24%	-25	-0.7%	-0.5	0.8
CCCCC[n+]1ccn(C2=C([O-])c3ccccc3C(=O)/C2=N\S(=O)(=O)c2ccccc2)c1	?	3%	0	-0.3%	2.4	0.3
COc1ncnc2c1oc1nc(C)c3c(c12)CC(C)(C)OC3	-14%[15.4 µM]	-2%	0	0.1%	0.2	-0.5
O=C(Nc1ccccc1C(F)(F)F)N1CCC2(CC1)Oc1ccccc1C(=O)N2Cc1ccccc1F	·	·	-5	-4.3%	·	2.6
CCOC(=O)c1nc(NCCc2ccccc2)sc1C	1%	-4%	-5	1.1%	-2.6	1.5
Nc1ccccc1NC(=O)c1ccccc1	-25%	7%	-2	-5.3%	1.5	0.8
Cn1c(-c2sccc2OCc2ccccc2)n[nH]c1=S	4%	-1%	7	-9.1%	-2.3	1.3
Cc1noc(C)c1CCC(=O)Nc1cc(C(=O)O)ccc1Cl	-2%	·	-24	1.1%	·	-0.5
COc1ccccc1-c1c(C(F)(F)F)oc2c(CN3CCCCC3C)c(O)ccc2c1=O (stereo unspecified)	·	·	16	-1.3%	·	-0.6
O=C1CN(C(=O)Cc2ccc(F)cc2)C(c2ccccc2)c2cc(Cl)ccc2N1 (stereo unspecified)	·	·	-9	1.9%	·	-0.1
O=C(O)CN1C(=O)/C(=C\c2ccccc2OCc2ccc(Cl)cc2)SC1=S	?	-18%	-4	0.8%	5.8	0.4
Cc1sc2ncnc(N3CCC(C(=O)NNC(=O)COc4cccc(C(F)(F)F)c4)CC3)c2c1C	28%	50µM*	3	-1.7%	·	1.1

Next part.
Structure	gsp agonist	gsp antag	TRPML1 inh	ClpP mod	Menin MLL FP FL	TRPML1 ag
Fc1ccccc1/C=N/Nc1ccc(Cl)nn1	?	-2%	·	3.0%	0.9	·
O=C(Nc1ccc(Oc2ccccc2)cc1)C1CCN(S(=O)(=O)c2ccc(Cl)cc2)CC1	·	·	5	0.0%	·	-0.5
O=c1cc(CN2CCN(c3ccc(O)cc3)CC2)nc2scc(-c3ccccc3)n12	1%[15.4 µM]	-9%	-14	0.7%	1.1	-1.4
COc1nc(NC2CCCCC2)nc(NC(C)(C)C)n1	-11%[15.4 µM]	-1%	3	-0.8%	·	1.1
Cc1ccc(C)c(C(=O)CSc2nc3ccccc3c(=O)[nH]2)c1	-24%[15.4 µM]	6%	14	·	2.0	-0.1
Nc1ccc(-c2ncc(-c3ccccc3)o2)cc1	-3%[15.4 µM]	?	-12	·	-12	-0.5
COc1cccc(CNC(=O)c2ccc3nc(-c4ccccc4)c(-c4ccccc4)nc3c2)c1OC	·	·	-1	?	·	-0.1
Cc1[nH]c2ccccc2c1C(=O)CN1CC(C)CC(C)C1 (stereo unspecified)	-6%	-1%	-18	-2.5%	2.0	0.1
O=c1c(Cc2ccccc2)c(O)ccn1Cc1ccc2c(c1)OCO2	6%	-7%	10	-0.9%	-2.1	0.9
C=C1CCN(C(Cc2ccccc2)C(=O)NCc2ccccc2)S(=O)(=O)c2ccccc21 (stereo unspecified)	·	·	23	·	6.6	3.6
CCOc1cc(NS(=O)(=O)c2ccc(NC(C)=O)cc2)c(OCC)cc1NC(=O)C(C)C	3%	-8%	8	0.3%	-0.1	-0.4
CC(C)OCc1ccc(C(=O)N2CCN(S(=O)(=O)c3ccc(Br)s3)CC2)cc1	23%	-23%	9	1.8%	·	2.4
CCc1ccc2nc(NC(=O)c3ccc(N4C(=O)CCC4=O)cc3)sc2c1	7%[15.4 µM]	19%	5	·	3.7	1.0
COc1ccc2oc(C(=O)N3CCc4ccccc43)c(C)c2c1	?	-18%	-11	-1.2%	·	0.0
